CtBP-E1A blk – CtBP/E1A binding inhibition; actives 0.49% (n = 340,000); AlphaScreen GST-E1A/His-CtBP binding, 1536-well; hits give low values; control for the full effect not named in the record; activity change, % (test concentration not listed); in the data active means activity change below about -65%; inconclusive means about -30% to -65%; inactive means above about -30%; further: on the % scale 0 is the no-effect control and ±100 the full control effect; compound concentration not given in the record
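Protein mix (5X: 125 nM each GST-E1A, His-CtBP) was incubated with pinned compound 2 h at 37 deg C in dark, in 50 mM Tris pH 8.0 buffer with 300 mM NaCl. Glutathione donor and nickel acceptor beads followed; AlphaScreen signal read after 1 h.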
TRPML1 inh – human mucolipin-1 channel inhibition; TRPML1-inducible cells, Ca2+ dye fluorescence, FDSS; hits give low values; inhibition of EC80 agonist-evoked calcium signal; activity change, negative = inhibition, % (concentration not given with the values); actives 0.02% (n = 390,000); Q9GZU1; in the data active means activity change below about -50%; inconclusive means about -30% to -50%; inactive means above about -30%;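 further: stimulus is agonist 54-4 at its EC80 concentration; on the % scale 0 is the no-effect control and ±100 the full control effect; compound concentration not given in the record; the text of the record puts the active cut at -80%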
Target sequence (Q9GZU1 whole entry, looked up): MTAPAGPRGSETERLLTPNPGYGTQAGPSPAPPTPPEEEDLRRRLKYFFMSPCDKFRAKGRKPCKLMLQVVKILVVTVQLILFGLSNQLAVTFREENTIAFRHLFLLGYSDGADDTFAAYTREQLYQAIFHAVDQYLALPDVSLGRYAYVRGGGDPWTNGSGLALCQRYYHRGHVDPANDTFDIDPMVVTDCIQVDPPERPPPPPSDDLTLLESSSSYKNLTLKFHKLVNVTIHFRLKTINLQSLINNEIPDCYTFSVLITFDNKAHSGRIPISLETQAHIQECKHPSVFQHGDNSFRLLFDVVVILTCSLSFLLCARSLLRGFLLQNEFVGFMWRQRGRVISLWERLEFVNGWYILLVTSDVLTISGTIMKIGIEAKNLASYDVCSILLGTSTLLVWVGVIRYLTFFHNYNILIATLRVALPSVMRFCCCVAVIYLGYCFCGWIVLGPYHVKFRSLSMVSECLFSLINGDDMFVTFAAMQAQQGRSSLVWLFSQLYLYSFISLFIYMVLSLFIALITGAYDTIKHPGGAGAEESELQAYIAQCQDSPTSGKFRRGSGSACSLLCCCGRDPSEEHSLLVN
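Calcium fluorescence in TRPML1-DL cells induced overnight with Tet: a 110 s read after compound pin addition, then a 110 s antagonist read after challenge with 54-4 at 4 uM final (EC80).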
Six1-Eya2 blk – inhibitors of human Six1/Eya2 interaction; actives 0.56% (n = 360,000); activity change, % (no concentration beside the values); AlphaScreen GST-Six1/His-Eya2 binding, biochemical; hits give low values; control for the full effect not named in the record; in the data active = activity change below about -65%; inconclusive = about -30% to -65%; inactive = above about -30%; further: on the % scale 0 is the no-effect control and ±100 the full control effect; compound concentration not given in the record
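AlphaScreen with GST-Six1 and His-Eya2 (5X mix: 250 nM and 500 nM), glutathione donor and nickel acceptor beads; buffer 50 mM Tris pH 8.0, 300 mM NaCl, 1 mM TCEP; 1 h at 37 C in the dark.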
PINK1 expr mod – changes PINK1 expression | PINK1 immunofluorescence, high-content cytometry, 24 h | Potency, µM (series often up to 76.6 µM), for inactives: at the top dose activation (PINK1 increase), hits mostly activators | actives 0.2% (n = 410,000) | AID 624263; active = well fitted activation curve with a large enough effect; inconclusive = small, poorly fitted or top-dose-only effect; inactive = flat fitted curve, though single readings scatter; cell line not stated here;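 further: potency means the concentration at half of the fitted maximal effect; % of control where 0% means no effect; nearly all actives have a fitted effect of over 65% in size; a mitochondrial uncoupler was the plate control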
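Cells are seeded, rested 12 hours, then given compound at five concentrations or DMSO for 24 hours. After fixation, blocking and antibody staining, PINK1 amount and mitochondrial localization are scored; CCCP serves as control.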
TRPML1 ag – agonists of human TRPML1 channel; Q9GZU1; TRPML1-expressing cells, Ca2+ dye fluorescence, FDSS; host cell line not named in the record; reference of the full effect not given here; activation, % (no concentration beside the values); actives 0.12% (n = 410,000); in the data active = activation above about 50%; inconclusive = about 30% to 50%; inactive = below about 30%; further: 0% is about no effect; the text of the record puts the active cut at 80%
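Calcium fluorescence on an FDSS kinetic reader gave the read-out. Tet-induced TRPML1-DL cells were plated overnight, dye-loaded (Ca8 with quencher, 45-90 min, room temperature, dark), then read 110 s after compound addition, and again 110 s after 4uM final 54-4 (EC80).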
D2 ag – agonists of human D2 dopamine receptor (beta-arrestin). P14416. DiscoveRx PathHunter D2 beta-arrestin, luminescence, 90 min; 100% = 57 uM dopamine signal. activation, % (concentration not given with the values). actives 0.084% (n = 360,000); in the data active = activation above about 40%; inconclusive = about 15% to 40%; inactive = below about 15%; further: compound concentration not given in the record; the text of the record calls up to 30% inactive
Target sequence (P14416 whole entry, looked up): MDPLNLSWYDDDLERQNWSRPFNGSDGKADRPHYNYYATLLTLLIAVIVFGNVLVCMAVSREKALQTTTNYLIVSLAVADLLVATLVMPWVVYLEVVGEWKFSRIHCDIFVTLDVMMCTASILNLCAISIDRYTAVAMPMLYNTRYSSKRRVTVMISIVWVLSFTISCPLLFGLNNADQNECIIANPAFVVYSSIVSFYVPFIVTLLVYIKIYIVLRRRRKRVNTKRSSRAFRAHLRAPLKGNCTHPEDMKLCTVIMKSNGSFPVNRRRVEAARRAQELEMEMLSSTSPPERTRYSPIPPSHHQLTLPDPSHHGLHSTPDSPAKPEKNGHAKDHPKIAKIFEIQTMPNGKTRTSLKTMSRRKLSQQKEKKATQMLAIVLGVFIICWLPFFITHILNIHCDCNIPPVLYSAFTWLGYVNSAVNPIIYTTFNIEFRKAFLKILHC
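DiscoveRx PathHunter D2 beta-arrestin cells (2,100/well) attached overnight, then compound-stimulated 90 min at 37 C in HBSS/10 mM HEPES/0.1% Tween-20 buffer; beta-galactosidase complementation read by luminescence after 1 h at ambient temperature. Dopamine 57 uM final (EC100) as control.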
Starred values were filed as active, the others as inactive; ? = inconclusive; / = not tested or not shown; & = joins results of further samples; [ ] = remark or other dose.

SMILES	CtBP-E1A blk	TRPML1 inh	Six1-Eya2 blk	PINK1 expr mod	TRPML1 ag	D2 ag
CC(NS(=O)(=O)c1ccccc1)C(=O)NCc1ccco1 (configuration not stated)	21	-2	-1	3.6%[38.3 µM]	-0.1	1.7
O=C(Nc1cccc([N+](=O)[O-])c1)c1cnccn1	0	-4	-10	1.5%	-0.5	-0.5
Cc1oc(-c2ccccc2F)nc1CS(=O)(=O)CC(=O)N1CCN(c2ccccc2)CC1	3	-8&-5	-1	-1.2%&-0.9%	0.6&0.0	-1.2
Cc1ccc(S(=O)(=O)N2CCCCC2)cc1NC(=O)CCCOc1ccccc1	-1	10	-12	-1.8%	0.6	-1.2
CCNC(=O)C1CCCN(C(=O)C(c2ccccc2)c2ccccc2)CC1 (configuration not stated)	5	/	1	1.2%	-0.3	-4.8
Cc1cc(NC(=O)c2cccc(S(=O)(=O)N3CCOCC3)c2)no1	-1	2	-3	-2.8%	-0.7	0.0
CCc1noc(C)c1C(=O)OCC(=O)Nc1ncc(Cl)cc1Cl	7	-3	-6	-1.1%	-0.4	4.3
COc1ccc(N2CCSC2C(=O)NN)cc1 (configuration not stated)	-2	-13	-5	1.7%	-0.1	-1.8
O=C(CCN1CCN(CC(=O)Nc2ccccc2Cl)CC1)Nc1ccccc1F	-1	-21	2	-0.6%	2.6	-1.8
CC(C)(C)c1ccc(C(=O)NC(=S)NCC2CCCO2)cc1 (configuration not stated)	-10	1	4	-2.0%	0.9	0.2
CCOC(=O)C1=NNC(C(=O)OCC)C1c1ccccc1 (configuration not stated)	-21	-23	15	-2.3%	0.0	-0.2
Cc1ccc(-n2nc(CC#N)c(C#N)c2N)cc1Cl	4	-1	7	1.3%	0.4	-2.6
CC(C)Cn1c(=O)c2ccccc2n2c(CCC(=O)O)nnc12	3	-9	2	1.8%	-0.3	-1.7
Cc1ccc(CN2CC(C(=O)Nc3ccncc3)CC2=O)cc1 (configuration not stated)	7	14	2	2.3%	-0.3	0.6
CCOC(=O)N1CCN(C(=O)C2CCN(S(=O)(=O)c3ccc(C)cc3)CC2)CC1	2	1	0	/	0.0	1.6
Cc1ccc(-n2c(C)c(C)c3c(NCCCO)ncnc32)cc1	-11	21	-5	2.1%	2.0	6.2
O=C(COC(=O)c1cccs1)Nc1nc(-c2ccccc2)cs1	0	4	-1	1.3%	-0.1	-7.5
CC(Oc1ccc(Cl)cc1Cl)C(=O)NC(Cc1ccccc1)C(=O)O (configuration not stated)	10	25	-4	0.3%	1.0	-0.9
Cc1ccc(NC(=O)CSc2ccc(-c3ccc(-n4cccn4)cc3)nn2)c(C)c1	5	2	-2	1.0%	-0.2	-8.2
Fc1ccc(C2CCNCC2COc2ccc3c(c2)OCO3)cc1 (configuration not stated)	?	-9	-24	-1.2%	1.1	1.1
Cc1ccc(SCC(=O)Nc2ccc(N3CCN(C)CC3)c(F)c2)cc1	0	18	3	1.3%	-0.2	-2.5
COc1ccc(/C=C2\SC(=O)N(CCC(=O)NC3CCS(=O)(=O)C3)C2=O)cc1 (configuration not stated)	6	-6	0	-0.6%	-0.9	-2.9
CN(C)CCNC(=O)COc1cccc(Cl)c1	-3	10	-3	1.4%	0.6	0.8
COc1ccccc1CN1CCN(Cc2nc(-c3ccccc3)no2)CC1	2	-3	-10	-0.6%	-0.6	-2.7
CCn1c(CNC(=O)c2cccc(C)c2)nnc1SCC(=O)Nc1nnc(C)s1	6	-5	7	4.6%	-0.4	-1.3
SMILES	CtBP-E1A blk	TRPML1 inh	Six1-Eya2 blk	PINK1 expr mod	TRPML1 ag	D2 ag
Cc1cc(C(=O)OCC(=O)NCc2cccs2)ccc1[N+](=O)[O-]	-4	-4	-11	1.7%	0.8	-0.9
Cc1ccccc1Cn1cnc2c(cnn2C(C)(C)C)c1=O	-1	-3&3	14	0.3%	-0.4&1.0	0.3
C(=N\Nc1ncnc2ccccc12)/c1ccccc1	/	-8	-16	0.9%	-0.7	9.3
O=C(c1cc2sccc2n1Cc1ccc(F)cc1)N1CCCc2ccccc21	-2	2	-9	1.1%	-0.3	-5.1
CCc1nnc(NC(=O)c2ccc(COc3cccc(C)c3)o2)s1	6	-2	23	1.0%	-0.1	4.1
COc1ccc(NC(=O)CSc2nc(=O)n(CCN3CCOCC3)c3c2CCC3)cc1	5	-19	4	-1.2%	-0.2	7.4
CCOC(=O)c1c(-c2ccc(C)cc2)csc1/N=C(\C)C1=C(O)c2ccccc2C1=O	/	61	-7	0.8%	0.0	-6.5
COc1ccc(-c2cc(C(=O)Nc3cc(Br)ccc3O)no2)cc1	4	4	-1	11%	-0.9	0.5
Cc1ccc2nc(C)cc(C(=O)OCC(=O)Nc3cccnc3Cl)c2c1	-6	21	-7	-1.1%	1.4	-1.5
Cc1ccccc1NC(=O)Cc1nc(COC(=O)c2ccccn2)cs1	2	-8	-5	0.2%	-0.3	-4.7
COc1cccc(N2CCN(C(=O)c3oc4ccccc4c3NC(=O)CCc3cc(OC)no3)CC2)c1	-16	-9	-16	2.9%	0.6	0.3
CCN(Cc1ccccc1)C(=O)COC(=O)Cc1c[nH]c2ccccc12	4	-2	0	1.7%	1.0	-0.4
COc1cc(C(=O)Nc2ccc(NC(=O)C(C)C)nc2)cc(OC)c1OC	2	13	3	3.1%	0.2	1.8
CN(C(=O)COC(=O)c1ccc2ccccc2n1)C1CCCCC1	12	1	2	0.5%	-0.1	-1.5
CCN1CCN(c2ccc(S(=O)(=O)N3CCOCC3)cc2NC(=O)CC(C)C)CC1	3	5	-1	0.6%	-0.5	2.6
Cc1ccc(SCCC(=O)N/N=C/c2cccnc2)cc1	-6	0	5	-0.3%	1.3	-17
CCCCN(CCCC)S(=O)(=O)c1ccc(SCC(=O)OCC)c([N+](=O)[O-])c1	-17	24	-23	0.7%[38.3 µM]	1.3	-1.7
O=C(Nc1cnc(N2CCC(N3CCCCC3)CC2)c(C(=O)O)c1)c1ccc(Br)cc1	/	1	/	0.9%	2.0	/
COCCn1ccc2c(OCC(=O)Nc3ccccc3OC)cccc2c1=O	-13	1	?	-0.2%	-0.1	1.2
Cc1ccc(C(=O)N(CC(C)C)c2c(N)n(Cc3ccccc3)c(=O)[nH]c2=O)o1	-11	25	-1	-3.5%	2.7	-1.7
Cc1ccc(NS(=O)(=O)c2ccc(Br)cc2)nc1	-1	-14	9	-4.4%	-0.2	-0.7
COc1ccc(CCNC(=O)CSc2c[nH]c3ccccc23)cc1OC	7	32	0	-1.2%	0.0	-3.4
CC(NC(=O)C1CCN(Cc2ccccc2)CC1)c1cccc2ccccc12 (configuration not stated)	-6	/	2	-0.6%	2.1	3.6
Cc1ccc(C2CC(c3ccccc3)=NN2C(=O)CSc2nnc(-c3ccc(Cl)cc3)o2)o1 (configuration not stated)	0	4	-1	1.5%	-0.2	-4.5
CCCCC(=O)Nc1nnc(S(=O)(=O)N(CC)c2cc(C)cc(C)c2)s1	/	14	/	2.5%	2.1	/
SMILES	CtBP-E1A blk	TRPML1 inh	Six1-Eya2 blk	PINK1 expr mod	TRPML1 ag	D2 ag
CCC(CC)C(=O)Nc1nnc(CCc2ccccc2)s1	0	-13	7	3.4%	-0.3	3.2
O=C(c1ccc(F)cc1)C1CCN(C(=O)c2ccccc2)CC1	-6	-11	-2	-0.6%	0.1	3.3
Cc1ccc(C)c(N2CCN(C(=O)C3CCN(c4nc5ccc(C)cc5[nH]4)CC3)CC2)c1	/	2	/	-1.1%	1.3	/
C=CCOc1ccc(/C=N\NC(N)=S)cc1	/	27	0	-0.4%	1.1	-1.1
CCC(=NNC(=O)c1cccc(S(=O)(=O)N2CCOCC2)c1)c1ccccc1	13	3	4	-1.6%	-0.1	8.4
COc1ccccc1NS(=O)(=O)c1cc(NC(=O)c2cnccn2)ccc1N1CCOCC1	-73*	40	?	0.2%	2.2	2.4
COc1ccc(Cl)cc1-n1c(N)c(C(N)=O)sc1=S	-1	4	-4	4.5%[38.3 µM]	-0.9	1.7
CCn1c(SCC(=O)N/N=C/C=C\c2ccccc2[N+](=O)[O-])nnc1-c1ccccc1	-18	-13	-10	-33%[inhibitor][38.3 µM]	0.3	0.5
COc1ccc(S(=O)(=O)CC(O)CN2CCCC2=O)cc1 (configuration not stated)	2	-6	-3	/	0.1	-2.9
CCOC(=O)N1C2=NC(C(=O)OC)=C(C(=O)OC)[C@@H]3N(C)c4ccc(OC)cc4[C@]23C[C@H]1C(=O)OC	-7	-6	-5	1.5%	0.2	-3.0
Cc1ccc(NC(=O)Cn2nc([N+](=O)[O-])c(Br)c2C)cc1C	-16	2	-7	/	0.1	-3.7
Cc1nnc(NC(=O)CCNC(=O)c2ccccc2Cl)s1	2	4	0	0.4%	-0.4	-1.3
OCCCNc1ncnc2c1ncn2[C@H]1CN(C2CCCC2)C[C@@H](CO)O1	2	/	0	3.0%	-0.3	-7.0
COc1cc(CC2C(=O)OCC2C(=O)c2ccc3c(c2)OCO3)cc(OC)c1OC (configuration not stated)	10	-4	5	-1.9%	0.1	2.0
COc1ccc(CCNC(=O)CCNS(=O)(=O)c2cccc3nonc23)cc1OC	0	6	-2	5.5%[38.3 µM]	-0.3	-2.0
CC1(C(=O)O)CCC(C(=O)Nc2ccccc2O)C1(C)C (configuration not stated)	-6	-8	11	-1.2%[38.3 µM]	0.3	-1.0
O=C(CN1C2CCC1CC(NC(=O)NC1CCCCC1)C2)NC1CC1 (configuration not stated)	4	-2	0	-1.8%	-0.7	-4.5
COC(=O)[C@]1(C)N[C@H](CN(C)S(=O)(=O)c2ccccc2)[C@@H]2C(=O)N(C)C(=O)[C@@H]21	6	-7	8	0.6%	-0.7	-1.7
CCCOC(=O)CCc1n[nH]c(=O)[nH]c1=O	4	5	-3	1.4%	0.8	-0.1
CCC(Sc1nc2cc3c(cc2c(=O)n1CCCCCC(=O)NCc1ccc2c(c1)OCO2)OCO3)C(=O)NCCCOC (configuration not stated)	/	17	/	-1.4%	2.4	/
O=C(Cn1cc(S(=O)(=O)Cc2cccc(Cl)c2)c2ccccc21)Nc1ccccc1C(F)(F)F	/	-23	/	7.9%	1.1	/
COc1cc(NC(=S)NCCc2ccc(S(N)(=O)=O)cc2)c(OC)cc1Cl	5	13	-8	1.3%	1.5	2.1

Six entries already listed, ordered by the value under CtBP-E1A blk, smallest number first:
SMILES	CtBP-E1A blk
COc1ccccc1NS(=O)(=O)c1cc(NC(=O)c2cnccn2)ccc1N1CCOCC1	-73*
Cc1ccc(NC(=O)Cn2nc([N+](=O)[O-])c(Br)c2C)cc1C	-16
CCOC(=O)N1C2=NC(C(=O)OC)=C(C(=O)OC)[C@@H]3N(C)c4ccc(OC)cc4[C@]23C[C@H]1C(=O)OC	-7
CC1(C(=O)O)CCC(C(=O)Nc2ccccc2O)C1(C)C (configuration not stated)	-6
OCCCNc1ncnc2c1ncn2[C@H]1CN(C2CCCC2)C[C@@H](CO)O1	2
CCC(=NNC(=O)c1cccc(S(=O)(=O)N2CCOCC2)c1)c1ccccc1	13

Entries listed above shown as hits in CtBP-E1A blk:
SMILES,CtBP-E1A blk,TRPML1 inh,Six1-Eya2 blk,D2 ag
COc1ccccc1NS(=O)(=O)c1cc(NC(=O)c2cnccn2)ccc1N1CCOCC1,-73*,40,?,2.4

Screening data as filed in PubChem BioAssay.
